rRNA inh HTS = inhibitors of bacterial rRNA selective over humanized ribosomes | GFP signal change (wild-type ribosome), % (no concentration beside the values) | AID 720706 | E. coli WT GFP vs humanized-ribosome RFP mutants, fluorescence, 24 h; hits give low values; DMSO median 0, no signal -100 | hit rate 1.6% among 350,000;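 active = significant combined selectivity score with lowered wild-type GFP, culture density cut under 30%, mutant RFP and density less affected; inactive = any of these conditions unmet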; note: one replicate is shown; some compounds called inactive have numbers as strong as hits
Calb FLC = affects C. albicans growth with fluconazole. AID 1979. C. albicans CaCi-2 (fluconazole-resistant clinical isolate) + fluconazole, Alamar Blue growth, 48 h. hit rate 0.57% among 300,000. growth inhibition, % (test concentration not listed);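 active = most replicates above 75%; inconclusive = exactly half above 75%; inactive = most below 75%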;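 note: all wells also contain fluconazole at 8 µg/ml as a sub-toxic cotreatment; 0% = median of DMSO wells and 100% = median of geldanamycin control wells; wells of about 8 µL received 7.5 nL stock; the first replicate is given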
RanGTP-Imp inh = disruptors of Ran-importin-beta complex formation – biochemical, FRET, CFP-Ran, YFP-importin-beta, homogeneous, primary screen; AID 2216; cell-free CFP-Ran/YFP-importin-beta FRET ratio; inhibition, % (no concentration beside the values); hit rate 1.1% among 300,000;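 active = most replicates above 15%; inconclusive = exactly half above 15%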;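 note: 0% = DMSO wells and 100% = Ran loaded with GDP instead of GTP; wells of about 40 µL received 100 nL stock; the first replicate is given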
T cruzi inh = blocks replication of Trypanosoma cruzi. hit rate 1.4% among 300,000. inhibition, % (concentration not given with the values). T. cruzi beta-gal in NIH3T3, luminescence, 90 h. AID 1885;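 active = mean inhibition across valid replicates above about 55%, limit read from the data; inconclusive = mean below that limit but half or more replicates reach it; inactive = mean below it, under half of replicates reach it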;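 note: signal also drops with host cell toxicity which is not excluded here; 0% = plate median of DMSO wells and 100% = zero luminescence signal; higher percent means less beta-gal luminescence so fewer parasites; stock transfer was 50 nL into about 50 µL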
Bfl-1 A1 inh = inhibitors of the anti-apoptotic protein A1, read as caspase activation | MEF A1-2A-BIM cells, Caspase-Glo 3/7 luminescence, 3 h; percent of clofoctol response, vehicle zero | caspase activation, % (concentration not given with the values) | hit rate 0.066% among 330,000;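 active = over half of replicate activation scores above 10%, or exactly half above 10 with the replicate mean above 10; inconclusive = replicate mean below 10 yet half the replicates above 10; inactive = over half of replicates below 10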;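 note: wells of about 30 µL received 50 nL stock; many hits fall short of the cut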
Beta cell apopt = beta cell apoptosis inhibition; hit rate 0.8% among 300,000; INS-1E cytokine-induced death, ATP luminescence, 48 h; percent of positive-control rescue, neutral wells zero; protection from apoptosis, % (test concentration not listed);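 active = all replicates at 75% or more, or half of them and the mean; inconclusive = half reach 75% but not the mean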;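 note: 0% = cytokine-treated negative control wells and 100% = positive control rescue; higher means more ATP so stronger rescue from cytokine killing; wells of about 40 µL received 100 nL stock; the first replicate is given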
AF4-AF9 inh = MLL-AF4/AF9 protein interaction inhibition; P42568; hit rate 0.47% among 350,000; AlphaScreen, biotin-AF4 peptide binding to FLAG-AF9; inhibition, % at 10 µM;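 active = every replicate reaching a set inhibition limit, whatever the replicate mean, cut at about 25% in these data; inconclusive = mean inhibition reaches that limit but some replicates miss it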;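 note: 0% = plate neutral control median and 100% = total signal loss; the record names both 10 and 1 µM as test concentration; the first replicate is given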
Target sequence (P42568 whole entry, looked up): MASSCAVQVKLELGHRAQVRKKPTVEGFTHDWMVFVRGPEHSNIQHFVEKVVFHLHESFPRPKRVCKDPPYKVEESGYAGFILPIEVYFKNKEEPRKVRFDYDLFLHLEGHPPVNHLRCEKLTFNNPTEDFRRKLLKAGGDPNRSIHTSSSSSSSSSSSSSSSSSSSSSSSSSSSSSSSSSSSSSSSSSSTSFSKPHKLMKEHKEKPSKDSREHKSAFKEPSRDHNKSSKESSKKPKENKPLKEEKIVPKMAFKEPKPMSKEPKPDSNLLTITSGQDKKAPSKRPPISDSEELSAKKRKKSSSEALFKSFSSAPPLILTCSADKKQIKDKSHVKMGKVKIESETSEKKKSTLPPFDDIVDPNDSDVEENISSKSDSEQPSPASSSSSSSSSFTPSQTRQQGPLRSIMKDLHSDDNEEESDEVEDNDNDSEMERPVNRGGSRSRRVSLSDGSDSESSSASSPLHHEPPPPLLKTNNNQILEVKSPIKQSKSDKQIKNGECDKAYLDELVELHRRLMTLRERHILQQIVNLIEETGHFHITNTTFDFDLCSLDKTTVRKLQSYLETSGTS
Vif A3G = inhibitors of Vif binding to APOBEC3G peptide, primary screen, biochemical, TR-FRET, GST-Vif 1-94, biotin-A3G peptide, dose response retest (AID 1117319); inhibition, %, or IC50 in µM where a hit was titrated; TR-FRET GST-Vif / biotin-A3G peptide binding; higher % means a stronger effect; test concentration not given here; strong numbers were not always called active; hit rate 0.57% among 260,000;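 active = above the screen mean plus three standard deviations and confirmed in dose response; inconclusive = results disagree or hit not tested in dose response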;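 note: Vif residues 1-94 fused to GST binding biotinylated APOBEC3G peptide 110-148; 0% = full assay without inhibitor and 100% = GST in place of GST-Vif; retest series ran down from 100 µM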
rRNA inh HTS OD600 = further read-out of rRNA inh HTS, marked with its call; OD600 change, %; measured here: OD600 growth;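 optical density of the mix in the first replicate; 0 = DMSO median and -100 = no signal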
rRNA inh HTS RFP = also measured in rRNA inh HTS; calls as there; RFP signal change, %; measured here: RFP humanized mutant strains;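 first replicate; 0 = DMSO median and -100 = no signal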
Starred values were filed as active, the others as inactive; ? = inconclusive; . = no result given. This is a subset; the hit share may differ from the screen's.

Values run as follows: rRNA inh HTS, rRNA inh HTS OD600, rRNA inh HTS RFP, Calb FLC, RanGTP-Imp inh, T cruzi inh, Bfl-1 A1 inh, Beta cell apopt, AF4-AF9 inh, Vif A3G
COc1cccc(/C=C/C(=O)c2cccc([N+](=O)[O-])c2)c1
    7, -5, -2.9, 10, -0.3, -17, 0.4, -5, -7.6, ?
COC(=O)c1ccc(C(NC(=O)OCc2ccccc2)/C(C)=C/[C@@H](C)C(=O)NCc2ccc(-c3ccccc3)cc2)cc1 (some centres undefined)
    ., ., ., -1, -4.4, 52, 0.0, ., ., 7%
Cc1ccc2c(c1)C=CC(C)N2C(=O)c1ccccc1 (centres undefined)
    ., ., ., 6, -2.6, 17, 1.5, -5, ., 3%
CN(C)/C=N/c1c(C#N)cnn1-c1nc2ccccc2s1
    ., ., ., 4, 0.1, 9, 0.5, 6, ., 5%
COc1ccc(-n2nnnc2CNC(=O)c2ccc3c(c2)OCO3)cc1
    1, 3, -3.0, 6, 4.4, -1, -0.2, -7, -38, 2%
Cc1cccc(NC(=O)Nc2cc(C)on2)c1
    ., ., ., -6, 0.9, -11, -0.6, 5, ., -2%
O=[N+]([O-])c1nn(-c2ccc(Cl)cc2)n(O)c1=NCc1cccnc1
    -19*, -7.8*, 6.4*, 88*, 4.3, 24, -0.8, 8, 7.6, 5%
Oc1ccc(Br)cc1Cn1nnc2ccccc21
    -49, -76, -15, -10, -1.9, -4, 0.0, -1, 5.7, .
O=C(c1ccc2c(c1)OCO2)N1CCN(c2ccc(F)cc2)CC1
    ., ., ., -34, 2.5, -15, -0.7, 0, ., 7%
CSCCC(NS(=O)(=O)c1ccccc1F)C(=O)NCc1ccncc1 (centres undefined)
    16, 8, 0.5, -6, -1.1, -2, 0.5, ., -1.4, -3%
O=C1CC(/C=C/c2ccc(Cl)cc2)=Nc2ccccc2N1
    9, 6, -0.9, 17, 5.5, 29, 1.9, -10, 3.1, -9%
CC(=O)N1c2ccc(S(=O)(=O)NCCC(=O)Nc3ccc(C)c(Cl)c3)cc2CC1C (centres undefined)
    -15, -10, 2.8, -5, 1.3, 2, 0.2, 16, -1.1, .
Cc1ccccc1OCC(O)CN1CCN(CC(O)COc2ccccc2C)C(C)C1 (centres undefined)
    -9, -7, 2.7, 11, -2.6, 17, 2.1, -5, 2.2, 3%
CCS(=O)(=O)Nc1ccc(C(=O)NCCSc2ccccc2)cc1
    -4, -7, 0.8, 4, -2.9, -13, 0.8, -1, -0.4, .
COc1ccc2nc(C)cc(Nc3ccc(N4CCOCC4)cc3)c2c1
    ., ., ., -14, -1.8, 61*, -1.0, ., ., 16%
CCOC(=O)c1c(C)[nH]c(C(=O)OCC(=O)Nc2ccc(Cl)cn2)c1C
    4, 11, -0.7, ., ., ., 0.1, -2, -1.7, -2%
CCCCn1c(SCC(=O)Nc2nnc(CC)s2)nc2ccccc2c1=O
    ., ., ., 4, 0.3, 2, 0.2, 8, ., -1%
CC1(C)Cc2ccccc2-c2n[nH]c(=S)n21
    -5, -1, 0.2, -14, 3.2, 10, 1.2, ., -13, -2%
O=S(=O)(c1ccccc1)C1(S(=O)(=O)c2ccccc2)CCCC1
    ., ., ., -11, 3.9, 4, 0.1, -15, ., 17%
O=C(CCC(=O)Nc1ccc(F)cc1)N/N=C/c1ccc(O)cc1O
    -7, -1, -1.6, -4, -0.1, -13, 0.9, 1, -1.9, 0%
O=C(O)COc1cccc(/C=C2/SC(=S)N(Cc3ccccc3)C2=O)c1
    -14, -2, 21, 37, -3.2, 6, -0.1, -6, 9.1, 6%
O=C(c1noc2c1CCCC2)N1CCC(CO)(Cc2ccccc2Cl)CC1
    -31, -30, -2.4, 13, 6.1, 6, 0.4, ., 2.0, .
Nc1ncc(S(=O)(=O)c2ccc(Cl)cc2)c(N)n1
    7, 3, -0.3, -4, 2.2, -3, 1.9, -11, -2.5, -6%
COC(=O)c1scc(S(=O)(=O)C(C)C)c1N/N=C(\C#N)C(=O)c1ccc(Cl)cc1
    -43*, -22*, -5.9*, 18, 8.7, -3, -0.6, 0, 2.0, 1%
O=C(NCCS(=O)(=O)c1ccc(Br)cc1)c1ccccc1Cl
    2, 2, -0.5, -5, -1.6, -17, -0.5, -5, 0.7, .
CCOC(=O)CC1C(=O)NCCN1c1nc2c(C)cccn2c(=O)c1/C=C1\SC(=S)N(C(C)CC)C1=O (centres undefined)
    ., ., ., 20, -154, 26, -0.8, 12, ., -3%
N#CC1C(C#N)N2CCCN2C1c1ccc(Br)cc1 (centres undefined)
    ., ., ., -4, 2.8, -7, 0.4, -4, -2.8, .
S=C(Nc1ccccc1Cl)N1CCC(c2ccccc2)C1 (centres undefined)
    9, 9, 3.1, 7, -1.5, -14, 1.0, -2, 0.7, 2%
CCOC(=O)C1CCCN(C(=O)C2CCC(CNS(=O)(=O)c3ccc(NC(C)=O)cc3)CC2)C1 (centres undefined)
    ., ., ., -4, 0.6, -5, -0.4, 3, ., 21%
CN(C)S(=O)(=O)c1cccc(CSc2cccc[n+]2[O-])c1
    ., ., ., -3, -1.0, -4, 0.5, -11, ., 5%
CCOc1ccc(COC(=O)C2CC(=O)N(CCc3ccccc3)C2)cc1OC (centres undefined)
    1, 0, -1.1, ., ., ., 0.2, -2, 1.8, .
O=C(OCCN1C(=O)c2ccccc2C1=O)c1ccco1
    ., ., ., -2, -1.5, -16, 0.4, -7, ., 23%
COc1ccc(N2CCN(C(CNC(=O)C(C)(C)C)c3ccco3)CC2)cc1 (centres undefined)
    10, 2, 0.9, -5, -3.7, -20, 0.2, -1, 0.7, -8%
CC1=NN(C(=O)Cn2ccc([N+](=O)[O-])n2)C(O)(C(F)(F)F)C1 (centres undefined)
    9, 7, 3.7, 4, 1.9, -9, -0.7, ., 2.9, .
O=C(CN1C(=O)NC2(CCCC2)C1=O)N1CCN(c2ccccc2Cl)CC1
    -5, -8, 0.7, ., -1.7, 7, -0.4, -3, -19, -5%
CC(C)Cc1nnc(NC(=O)CCC(=O)NC2CCCc3ccccc32)s1 (centres undefined)
    ., ., ., 13, 5.0, -8, -0.2, 1, ., .
COc1ccc(CN2CCOCC2)c(C)c1C
    ., ., ., -9, -0.2, 3, -0.6, -9, ., 3%
O=C(COC(=O)CCCN1C(=O)c2cccc3cccc(c23)C1=O)Nc1cccc(Br)c1
    -4, -2, -4.1, -6, 4.6, -7, 0.2, -6, ?, ?
CCOC(=O)C(C)On1c(-c2ccccc2)nc2ccc([N+](=O)[O-])cc21 (centres undefined)
    ., ., ., -8, 1.5, 12, 1.9, 15, ., 0%
CC(=O)N1c2ccccc2N(Cc2ccc([N+](=O)[O-])cc2)C(=O)C1(C)C
    ., ., ., 2, 4.6, 1, 0.5, -1, ., .
CCOc1ccc(CN2CCN(Cc3cc4ccccc4[nH]3)CC2CCO)cc1 (centres undefined)
    ., ., ., -11, 21*, 60*, ., ., 9.5, -2%
CCCN1CCN(C(=O)c2ccc(CS(=O)c3ccc(F)cc3)o2)CC1 (centres undefined)
    14, 14, -0.7, -6, 1.5, 12, 1.2, -5, 0.3, -11%
Cc1nc2ccccc2n1CC(=O)OCC(=O)NC1CC1
    11, 0, -1.5, 3, -3.7, -8, -0.3, ., -1.6, .
COc1ccc(C(=O)NC2CCCc3c2cnn3-c2cc(F)cc(F)c2)c(OC)c1OC (centres undefined)
    -19, -35, 2.0, 3, 3.1, 18, 0.7, 3, -0.3, .
CCC(C)NC(=O)c1cn(CC)c2cc(N3CCN(C(=O)c4ccco4)CC3)c(F)cc2c1=O (centres undefined)
    -58, -77, -17, 4, 4.6, -5, -1.3, 14, 2.6, .
NC(=S)C(c1ccccc1)c1ncc(C(F)(F)F)cc1Cl (centres undefined)
    8, 1, -1.1, -5, -0.7, -1, 0.1, -1, 7.9, 4%
Cc1cc([N+](=O)[O-])cc(C)c1OCC(=O)N/N=C/c1ccc(OC(=O)c2ccccc2)cc1
    ., ., ., 6, ?, -1, 0.2, -1, ., 3%
Cc1ncsc1C(=O)Nc1nc2c(s1)CCCC2
    ., ., ., 10, 4.7, -15, -8.3, 18, -4.4, 10%
CC1(C)CC(=O)C(C2(O)C(=O)N(Cc3ccccc3)c3ccccc32)CO1 (centres undefined)
    ., ., ., -46, 2.9, 5, 0.0, -5, ., -13%
Cc1cc(C)n(/N=C/c2ccccc2)c(=O)c1C#N
    ., ., ., -4, -3.6, 10, 0.5, ., ., 5%
CCc1cc(CC)c(/C=N/NC(N)=O)c(CC)c1
    -18, -27, -1.2, 32, 2.0, -15, -0.1, -6, 2.3, -1%
COc1ccc(NC(=O)c2[nH]c(C)c(C(C)=O)c2C)cc1S(=O)(=O)Nc1ccc(Br)cc1
    -6, -6, 0.4, 1, -3.4, 56*, 0.5, 3, 3.8, .
COc1ccc(NC(=O)[C@@H]2CCCN2S(=O)(=O)c2ccccc2F)cc1S(=O)(=O)N1CCCCC1
    2, 2, 3.9, ., ., ., -1.0, 3, 3.7, -2%
COc1ccc(-c2cn[nH]c2-c2ccc(OCc3ccccc3F)cc2O)cc1OC
    -35, -67, -4.3, -5, 3.2, 11, 0.7, 16, 9.7, -10%
Cc1ccc2nc(NC(=O)CCNS(=O)(=O)c3ccc(Br)s3)sc2c1
    -55, -80, -35, 13, -2.5, 52, -0.1, -1, 12, -5%
CCN(CC)C(=O)C(Oc1ccc(S(=O)(=O)N2CCCC2)cc1[N+](=O)[O-])c1ccccc1 (centres undefined)
    -2, 0, 1.7, -2, 0.2, 20, 0.2, 2, 3.6, .
O=C(/C=C/c1cccc(F)c1)NCc1ccc2c(c1)OCO2
    4, -2, 10, -8, -10, -4, -0.3, 1, -20, .
O=C(CN1C(=O)NC(c2ccccc2)(c2ccccc2)C1=O)NC1CCS(=O)(=O)C1 (centres undefined)
    19, 9, 1.3, ., ., ., 0.1, -2, 0.1, 5%

Source: PubChem BioAssay (several laboratories)
